CtBP-E1A inh: CtBP/E1A binding inhibition | AlphaScreen GST-E1A/His-CtBP binding, 1536-well; hits give low values; control for the full effect not named in the record | activity change, % (concentration not given with the values) | hit rate 0.49% among 340,000 | AID 651724; in the data active means activity change below about -65%; inconclusive means about -30% to -65%; inactive means above about -30%; note: % is set by controls: 0 for no effect and ±100 for the full control effect
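GST-E1A and His-tagged CtBP (125 nM each as 5X stock) were preincubated with pin-transferred compound for 2 h at 37 °C in the dark, then glutathione donor and nickel acceptor beads were added for 1 h before AlphaScreen reading.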
Six1-Eya2 blk: Six1/Eya2 interaction inhibition; Q15475+O00167; AlphaScreen GST-Six1/His-Eya2 binding, biochemical; hits give low values; control for the full effect not named in the record; activity change, % (test concentration not listed); hit rate 0.56% among 360,000; AID 651725; in the data active = activity change below about -65%; inconclusive = about -30% to -65%; inactive = above about -30%; note: % is set by controls: 0 for no effect and ±100 for the full control effect; compound concentration not given in the record
Target sequence (O00167 whole entry, looked up): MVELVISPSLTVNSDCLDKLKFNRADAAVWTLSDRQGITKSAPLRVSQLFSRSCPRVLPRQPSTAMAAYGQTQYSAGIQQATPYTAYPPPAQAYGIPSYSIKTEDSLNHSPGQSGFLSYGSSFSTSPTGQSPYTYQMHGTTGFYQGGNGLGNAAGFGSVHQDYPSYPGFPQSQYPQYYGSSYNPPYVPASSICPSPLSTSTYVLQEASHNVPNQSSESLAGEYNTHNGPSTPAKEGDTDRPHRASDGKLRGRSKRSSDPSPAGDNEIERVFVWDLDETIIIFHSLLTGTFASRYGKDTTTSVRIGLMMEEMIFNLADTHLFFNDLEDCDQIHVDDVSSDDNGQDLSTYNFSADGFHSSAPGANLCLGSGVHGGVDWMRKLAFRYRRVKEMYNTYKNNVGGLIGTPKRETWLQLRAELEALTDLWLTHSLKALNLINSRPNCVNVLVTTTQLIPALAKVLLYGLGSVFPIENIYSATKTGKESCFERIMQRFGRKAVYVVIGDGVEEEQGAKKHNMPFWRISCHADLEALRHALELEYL
Target sequence (Q15475 whole entry, looked up): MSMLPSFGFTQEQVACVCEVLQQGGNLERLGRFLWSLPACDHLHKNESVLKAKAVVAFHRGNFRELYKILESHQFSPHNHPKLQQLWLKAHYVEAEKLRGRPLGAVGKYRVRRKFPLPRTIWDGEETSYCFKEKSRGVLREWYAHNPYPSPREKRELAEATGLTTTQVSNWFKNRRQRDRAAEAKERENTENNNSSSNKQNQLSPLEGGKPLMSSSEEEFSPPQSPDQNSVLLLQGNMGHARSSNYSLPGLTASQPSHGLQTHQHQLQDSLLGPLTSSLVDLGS
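AlphaScreen with GST-Six1 and His-Eya2 (5X mix: 250 nM and 500 nM), glutathione donor and nickel acceptor beads; buffer 50 mM Tris pH 8.0, 300 mM NaCl, 1 mM TCEP; 1 h at 37 C in the dark.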
D2 potentiator: positive allosteric modulators of human D2 dopamine receptor; P14416; DiscoveRx D2 beta-arrestin cells, luminescence, 90 min; 100% = 57 uM dopamine signal; potentiation, % (concentration not given with the values); hit rate 0.23% among 360,000; AID 624464; active = potentiation of 50% or more; inconclusive = 30% to 50%; inactive = 30% or less;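 note: compound concentration not given in the record; tested on top of an EC20 dose of dopamine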
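D2 cells co-treated with compound plus 50 nM dopamine (EC20) for 90 min at 37 deg C to detect potentiation. Beta-arrestin recruitment was read as enzyme-fragment luminescence after 1 h at ambient temperature. Full response was set by 57 uM dopamine.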
TRPML1 inh: human mucolipin-1 channel inhibition | Q9GZU1 | TRPML1-inducible cells, Ca2+ dye fluorescence, FDSS; hits give low values; inhibition of EC80 agonist-evoked calcium signal | activity change, negative = inhibition, % (test concentration not listed) | hit rate 0.02% among 390,000 | AID 624415; in the data active means activity change below about -50%; inconclusive means about -30% to -50%; inactive means above about -30%;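 note: stimulus is agonist 54-4 at its EC80 concentration; % is set by controls: 0 for no effect and ±100 for the full control effect; compound concentration not given in the record; the text of the record puts the active cut at -80%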
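TRPML1-DL cells, Tet-induced overnight (~16 h, 37 °C) at 1,500 cells/well, were loaded with Ca8 no-wash dye plus quencher for 45-90 min at room temperature. Compounds were pinned during FDSS kinetic reading; agonist 54-4 at EC80 (4 uM final) then added.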
TRPV1 potentiator: human TRPV1 potentiation; Q8NER1; TRPV1-expressing cells, Fluo-8 calcium influx, capsaicin EC20 potentiation; host cell line not named in the record; control for the full effect not named in the record; potentiation, % at 8.33 µM; hit rate 0.02% among 320,000; active means potentiation above 80%; inconclusive means 30% to 80%; inactive means below 30%; note: 0% is about no effect
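Fluo-8 calcium influx in TRPV1-expressing cells, kinetic read (ex 480/em 520 nm). Compound added and read 3 min for agonist activity, followed by capsaicin at EC20 final and 2 min further read for enhancement.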
TRPML1 agonist: agonists of human TRPML1 channel | Q9GZU1 | TRPML1-expressing cells, Ca2+ dye fluorescence, FDSS; host cell line not named in the record; reference of the full effect not given here | activation, % (concentration not given with the values) | hit rate 0.12% among 410,000 | AID 624414; in the data active = activation above about 50%; inconclusive = about 30% to 50%; inactive = below about 30%; note: 0% is about no effect; the text of the record puts the active cut at 80%
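Calcium fluorescence on an FDSS kinetic reader gave the read-out. Tet-induced TRPML1-DL cells were plated overnight, dye-loaded (Ca8 with quencher, 45-90 min, room temperature, dark), then read 110 s after compound addition, and again 110 s after 4uM final 54-4 (EC80).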
Active calls of the source: *; ? = inconclusive; nt = no result given.

canonical_smiles	CtBP-E1A inh	Six1-Eya2 blk	D2 potentiator	TRPML1 inh	TRPV1 potentiator	TRPML1 agonist
COc1ccc(NC(=O)C2(c3cccs3)CCOCC2)cc1	-8	5	-6	nt	3	nt
Cc1cc(NC(=O)CCCN2C(=O)c3cccc4cccc(c34)C2=O)no1	-6	0	4	-2	-9	-1.1
COc1cc(NC(=O)c2ccccc2F)c(OC)cc1NC(=O)CN1CCCCC1	-24	-27	-6	5	-10	1.2
CCn1c(-c2ccc(N(C)C)cc2)nc2ccccc21	7	-9	20	-7	-3	0.3
C=CCN1C(=O)/C(=C2/Sc3ccccc3N2CC)SC1=S	5	-7	-2	9	2	-0.4
CS(=O)(=O)N(CC(=O)NCc1ccccc1Cl)Cc1ccccc1	6	3	-21	-1	17	0.0
C=CCOc1cc(OC)c(OC)c(OC)c1	-3	0	-5	0	9	-0.4
Cc1cccnc1NC(=O)c1cc2c(=O)oc3ccccc3c2s1	8	12	-3	-15	-1	0.0
O=C(COC(=O)c1cccc(Cl)c1)NC(=O)NCc1ccccc1	-14	5	-17	12	nt	0.3
COc1ccc(S(=O)(=O)N2CCCCCC2)cc1C(=O)N1CCN(c2ccc(F)cc2)CC1	-8	-3	-3	4	nt	-0.6
O=C(CN1CCc2ccccc2C1)Nc1ccccc1F	8	8	1	11	-9	-0.6
O=C(NCc1ccc(Cl)c(Cl)c1)c1cc(C2CCCCN2C(=O)OCCF)on1 (configuration not stated)	3	-7	-3	nt	nt	0.0
CCCOCC(O)CC(Cc1ccccc1)C(=O)NN (configuration not stated)	nt	2	-27	-8	2	-0.5
O=C(NCCc1ccc(F)cc1)c1coc(=O)c(Br)c1	nt	8	-16	-6	-24	-0.1
CCCN(/C=N/c1sc2c(c1C#N)CCCCC2)CCC	-1	5	-1	-12	14	0.1
CCOc1ccc(Nc2ccc(N)c(S(=O)(=O)O)c2)cc1	?	?	5	8	nt	-0.6
N#C/C(=C\c1c(N2CCC(C(N)=O)CC2)nc2ccccn2c1=O)S(=O)(=O)c1ccccc1	-8	-17	-4	-10	3	0.1
COc1ccc(/C=C2\SC(=S)N(N3CCOCC3)C2=O)c(OC)c1	4	-1	-11	11	0	-0.9
Cc1nc2ccccc2n1CC(O)COCC1CC=CCC1 (configuration not stated)	-1	8	5	26	-12	-0.4
On1nnc2ccc3ccccc3c21	0	-3	-2	6	0	-0.2
O=C(CSc1nc2ccccc2c(=O)n1-c1ccc(F)cc1)Nc1ccc2c(c1)CCC2	1	-4	-3	-16	-38	-0.3
CCC(C)[C@H](NC(=O)C1CC(=O)N(c2ccc3c(c2)OCCO3)C1)C(=O)NC1CCCC1 (some centres not stated)	6	2	3	-8	-5	-0.5
O=c1[nH]c(=O)c2cc3ccccc3nc2[nH]1	6	-8	-17	-15	nt	0.2
O=S(=O)(c1cccc(Cl)c1)N1CCC(c2nc3ccccc3[nH]2)CC1	-5	-13	-7	0	16	1.4
O=C(c1ccccc1)c1ccc(Oc2ccc(C(=O)O)c(C(=O)O)c2)cc1	nt	-18	-5	-1	6	-0.5
O=C(c1ccc([N+](=O)[O-])cc1[N+](=O)[O-])N1CCCC1	-3	-1	2	10	-3	-0.1
CN(CCO)C(=O)c1ccc(-c2nn(C)c(=O)c3ccccc23)cc1	-6	-9	4	-1	11	-0.2
Cc1ccccc1NC(=O)C(C)SCc1ccccc1 (configuration not stated)	7	1	-5	26	-7	-0.7
COc1ccccc1N1CCN(C(=O)C(F)F)CC1	4	2	1	-8	-1	0.2
Cc1ccc(C(=O)N2CCN(S(=O)(=O)N3CCOCC3)CC2)cc1	-10	6	0	-17	6	0.3

A draw from above in order of length of the SMILES, descending.
canonical_smiles	CtBP-E1A inh	Six1-Eya2 blk	D2 potentiator	TRPML1 inh	TRPV1 potentiator	TRPML1 agonist
O=C(NCc1ccc(Cl)c(Cl)c1)c1cc(C2CCCCN2C(=O)OCCF)on1 (configuration not stated)	3	-7	-3	nt	nt	0.0
Cc1cc(NC(=O)CCCN2C(=O)c3cccc4cccc(c34)C2=O)no1	-6	0	4	-2	-9	-1.1
Cc1cccnc1NC(=O)c1cc2c(=O)oc3ccccc3c2s1	8	12	-3	-15	-1	0.0
C=CCOc1cc(OC)c(OC)c(OC)c1	-3	0	-5	0	9	-0.4

Next part
canonical_smiles	CtBP-E1A inh	Six1-Eya2 blk	D2 potentiator	TRPML1 inh	TRPV1 potentiator	TRPML1 agonist
O=C(Oc1coc(CSc2nnc(NC(=O)C3CC3)s2)cc1=O)c1ccccc1	-2	-22	-4	32	2	-0.4
CCN1CCN(CCCNC(=O)CCc2nc(-c3ccc(OC)cc3)no2)CC1	10	2	-2	-8	?	0.1
CC/S(CC1CC1(Cl)Cl)=N\S(=O)(=O)c1ccc(C)cc1 (configuration not stated)	0	2	10	-3	-8	1.1
CCCc1nc(NCc2ccc3c(c2)OCO3)c2nnn(Cc3ccccc3Cl)c2n1	1	9	-14	4	19	-0.2
O=C(COC(=O)CSc1nnc(-c2ccc(Cl)cc2)o1)Nc1cc(Cl)ccc1Cl	5	-3	-15	2	-1	0.5
CCOc1ccccc1/C=N/NC(=O)c1cccc(Cl)c1	1	4	-21	37	0	-0.5
COc1ccc2[nH]c(=O)c(CN(CCN(C)C)C(=O)NCc3ccccc3)cc2c1	3	2	-3	20	-12	-0.4
CCc1cc(C(=O)c2ccc(OC)cc2)c(NC(=O)CC(C)(C)CC(=O)O)s1	0	-12	2	26	-11	2.7
CN1CCN(C(=S)Nc2cc(S(=O)(=O)N3CCOCC3)ccc2Cl)CC1	10	-10	-20	30	-1	0.4
O=C(CN1CCN(C(C(=O)Nc2cc(C(F)(F)F)ccc2Cl)c2ccccc2)CC1)NC1CC1 (configuration not stated)	-14	3	-4	13	nt	15
COC(=O)N1CN(C(=O)OC)CN(C(=O)OC)C1	-3	0	-27	-5	3	-0.3
O=C1Nc2ccccc2C1(O)c1ccccc1O (configuration not stated)	nt	5	-19	7	11	-0.2
Cc1cc(NC(=O)CCCN2C(=O)/C(=C/c3ccccc3Cl)SC2=S)no1	-3	-3	1	-7	?	1.7
CC(C)[C@H](NC(=O)N1CCn2c1nc1ccccc12)C(=O)NCc1ccc2c(c1)OCO2	0	0	-6	-11	4	-0.7
O=S(=O)(c1ccc(Cl)cc1)N1CCN(C(=S)Nc2ccc(F)c(Cl)c2)CC1	4	0	8	6	22	0.8
Cn1c(N)c(C(=O)CSc2nc3ccccc3c(=O)n2CCCN2CCOCC2)c(=O)n(C)c1=O	11	0	-1	-20	8	-0.1
CSc1ccc(CN2CCC(C)(Oc3ccc4ccccc4c3)C2)cc1 (configuration not stated)	-2	-8	-15	nt	nt	-0.3
Cc1cc(Cl)c(S(=O)(=O)N2CCN(c3ccc(F)cc3)CC2)cc1OCC(N)=O	-4	-4	-10	4	6	-1.0
COc1ccc(C(C)NC(=O)C2CCCC2)cc1OC (configuration not stated)	-19	5	0	5	-2	0.4
C=CCOc1ccc(CNCc2cccnc2)cc1OCC	4	11	-10	1	-9	-0.6
CC1Cc2ccccc2N1C(=O)COC(=O)/C=C/c1cccc(F)c1 (configuration not stated)	-90*	-26	-3	27	18	2.0
O=C(c1ccncc1)N1N=C(c2ccc(Cl)cc2)CC1c1ccccc1O (configuration not stated)	-2	-2	-7	-13	3	0.7
Cc1ccc(C(=O)C[n+]2cccc3ccccc32)cc1	-7	9	-15	34	-3	1.1
CC(C)n1cnc2c(NCc3ccccc3)cc(N[C@H](C)CO)cc21	-1	-21	-37	1	nt	7.5
Cc1ccc(-c2noc(CN3CCCCC3)n2)cc1	-2	-1	-18	4	-4	0.2
COc1ccc(S(=O)(=O)CCC(=O)NCCc2ccc(C)cc2)cc1	-16	-1	-6	-19	5	0.2
CCCNC1=CC(=O)CC(C)(C)C1	12	17	-2	0	-6	0.0
CN(C(=O)c1ccc(F)cc1)c1ccc(OCC(=O)Nc2ccccc2C(=O)O)cc1	2	-7	-20	2	nt	1.6
C#CCOCCOCCOCCNc1nc(N2CCN(C(=O)[C@H](CCC(=O)O)n3cc(C(N)CO)nn3)CC2)nc(N2CCN(C(=O)[C@H](Cc3ccc(O)cc3)n3cc(C(N)[C@H](C)CC)nn3)CC2)n1 (some centres not stated)	-19	-21	-6	-4	17	-0.5
COc1ccc(C(=O)Nc2ccccc2C(=O)NC2CC2)c(OC)c1OC	6	3	-10	9	nt	-0.4
O=C(Nc1ccc(N2CCOCC2)cc1)c1csc([C@@H]2C[C@H](O)[C@@H](CO)O2)n1	1	4	3	nt	nt	-0.7
Cc1ccc(-n2cccc2C(=S)N=P(N(C)C)(N(C)C)N(C)C)cc1	5	-11	-21	28	14	-0.4
O=C(C1=C[C@H](c2csc3ccccc23)C[C@H](OCc2ccc(CO)cc2)O1)N1CCCCCCC1	-23	0	-13	9	nt	1.5
Cc1ccc(N(C(=O)c2snc(C(N)=O)c2N)C(C(=O)NCC2CCCO2)c2c[nH]c3ccccc23)cc1 (configuration not stated)	-6	-7	-6	-16	26	0.9
COc1cc(OC)cc(OC(=O)C2CCN(C(=O)c3ccc(Cl)cc3)CC2)c1	2	1	-3	9	11	2.6
CC(C)n1cc(CN2CCCC(CO)(Cc3cccc(Cl)c3)C2)cn1 (configuration not stated)	1	-4	0	34	7	-0.4
O=C(C1CCCCC1)N1C[C@H](O)[C@@H](n2cc(C3CC3)nn2)C[C@@H]1c1ccccc1	-1	-8	-1	-2	nt	0.1
O=C(CNC(=S)N(CCCN1CCOCC1)Cc1cccs1)NC1CCCCC1	1	0	-22	26	-4	-0.2
Cc1ccc(C(=O)Nc2ccccn2)cc1S(=O)(=O)N1CCOCC1	3	2	-12	-4	-3	0.0
CC1Cc2ccccc2N1C(=O)CSCC(=O)O (configuration not stated)	-2	-1	-28	-14	nt	-0.1
CCC1CCCCN1S(=O)(=O)c1ccc(NC(=O)C2CCCO2)cc1 (configuration not stated)	6	7	8	11	-14	-0.4
CC(=O)c1ccc(NC(=O)CSc2nnc(Cn3c(=O)sc4ccccc43)n2C)cc1	2	-1	-2	-13	15	1.2
CC(C)c1cc(C(=O)N/N=C/c2ccco2)n[nH]1	-8	0	-5	-26	-4	2.5
CN1c2ccsc2/C(=N/Nc2ccccc2)CS1(=O)=O	-14	-18	30	-15	26	0.6
O=C(CN1C(=O)NC2(CCCC2)C1=O)Nc1nc2c(F)cc(F)cc2s1	5	2	4	-2	11	-0.5
Cc1ccsc1CNC(=O)C1(C)CCN1C(=O)C(C)C (configuration not stated)	3	2	0	nt	nt	-0.9

Just TRPV1 potentiator (two entries from above):
SMILES,TRPV1 potentiator
Cc1ccc(N(C(=O)c2snc(C(N)=O)c2N)C(C(=O)NCC2CCCO2)c2c[nH]c3ccccc23)cc1 (configuration not stated),26
COc1cc(OC)cc(OC(=O)C2CCN(C(=O)c3ccc(Cl)cc3)CC2)c1,11
